From PubChem
CDC25B CDK2 inh – human CDC25B-CDK2/CyclinA binding inhibition | P30305+P24941 | HTRF CDC25B-CDK2/CyclinA binding, anti-His/anti-Flag; stronger effect = higher value | z-score (concentration not given with the values) | 94,000 tested, 0.72% active | AID 1259370;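 further: score is relative to mean and SD of negative controls; strong numbers were not always called active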
HIV TAR-Tat – HIV-1 TAR-Tat binding disruption; HIV-1 TAR RNA, Tat peptide displacement FRET; stronger effect = higher value; z-score (test concentration not listed); 100,000 tested, 0.6% active;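 further: score is relative to mean and SD of negative controls; some compounds called inactive have numbers as strong as hits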
Starred values were filed as active, the others as inactive; . = no result given.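 How the source made its calls: active means z-score from 3 up in half or more of its runs; inactive means the rest.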

SMILES	CDC25B CDK2 inh	HIV TAR-Tat
COc1cc2c(=O)c(C(=O)c3ccc(F)cc3)cn(Cc3cccc(F)c3)c2cc1OC	-1.66	-0.07
CCC(CN1CCOCC1)NS(=O)(=O)c1c(C)nc2scc(C)n2c1=O (stereo not drawn)	-2.32	2.05
COc1ccc(OC)c(C2C(C#N)=C3N=C(N)c4ccccc4N3C3=C2C(=O)CCC3)c1 (stereo not drawn)	0.51	-5.24
CCCCN(C)C(=O)Cn1nc(CC)n2cccc2c1=O	-1.57	2.68
CCc1ccc(S(=O)(=O)Nc2ccc(-c3ccc(N4CCCC4)nn3)cc2)cc1	.	1.28
O=C(CSc1ccccc1)Nc1ncn[nH]1	-0.81	-1.68
O=C(COC(=O)CCCC1=NS(=O)(=O)c2ccccc2N1)Nc1ccc(Cl)cc1F	.	0.85
CC(Sc1nnc(-c2ccncc2)o1)C(=O)NCCC1=CCCCC1 (stereo not drawn)	-1.35	-3.3
COc1cccc(-c2cc3nc(-c4ccccc4)cc(=O)n3[nH]2)c1	-1.26	.
CCOC(=O)c1c(C)noc1-c1ccco1	-1.14	.
O=C(CCCc1nc(-c2ccco2)no1)Nc1ccc(Cl)cc1	-0.31	0.25
COCCOC(=O)c1c(C)oc2ccc(OC/C=C/c3ccccc3)cc12	-1.43	1.89

Next section, starting with the last 4 of the part before.
SMILES	CDC25B CDK2 inh	HIV TAR-Tat
COc1cccc(-c2cc3nc(-c4ccccc4)cc(=O)n3[nH]2)c1	-1.26	.
CCOC(=O)c1c(C)noc1-c1ccco1	-1.14	.
O=C(CCCc1nc(-c2ccco2)no1)Nc1ccc(Cl)cc1	-0.31	0.25
COCCOC(=O)c1c(C)oc2ccc(OC/C=C/c3ccccc3)cc12	-1.43	1.89
CN(C(=O)c1ccc(N2C(=O)CCS2(=O)=O)cc1Cl)C1CCS(=O)(=O)C1 (stereo not drawn)	-2.09	0.64
O=C(c1cc(-c2ccccc2)no1)N1CCCC1c1ccco1 (stereo not drawn)	-0.33	1.94
COc1ccc(-c2noc(N3CCN(C)CC3)n2)cc1	.	0.72
CCOC(=O)C1=C(C)NC(C)=C(C(=O)OCC)C1C	-1.11	.
Cc1cc2oc(C(=O)N(Cc3sccc3C)C3CCS(=O)(=O)C3)c(C)c2cc1Cl (stereo not drawn)	-0.7	0.51
Nc1nc(NCc2ccco2)n[nH]1	-0.49	.
O=C(CSc1ccc2nnc(-c3ccc(F)cc3)n2n1)N1CCCC1	-1.62	.
CCCNC(=O)Cn1cnc2sc(C(=O)N3CCC(C(N)=O)CC3)c(C)c2c1=O	.	1.74
O=C(NCc1cccs1)c1cc2nc(-c3cccs3)cc(C(F)(F)F)n2n1	-0.22	0.18
O=C(CSCc1cnn(-c2ccccc2)c1-n1cccc1)NC1CCCC1	0.6	0.19
O=C(CSc1nc2ccccc2s1)NC1=NN=C(c2ccccc2)CS1	-7.03	.
O=C1CSC(c2cccc(Br)c2)N1c1ccc2ccccc2c1 (stereo not drawn)	.	0.09
O=C(NCC(c1ccco1)N1CCCCC1)c1cc(=O)c2ccccc2o1 (stereo not drawn)	-3.24	0.52
Cc1cc(Nc2ccccc2C)n2nc(-c3ccccc3)nc2n1	1.75	1.36
CC(C)C(=O)Nc1nc2cc(NS(=O)(=O)c3ccc(Br)cc3)ccc2s1	.	0.97
CC(C)(C)c1cc(C(=O)NCc2cc(F)cc3c2OCOC3)n(Cc2ccccc2)n1	-1.15	.
Cc1ccc(-c2csc3c2ncn2c(=O)n(CC(=O)NC(C)C)nc32)cc1	.	0.42
CC(C)OCCCn1c(=O)c(C#N)cc2c(=O)n3ccccc3nc21	1.67	1.64
CCc1ccc(Nc2cc3n(c(=O)n2)CCc2sccc2-3)cc1	-2.6	0.97
COC(=O)C1=C(OC(=O)COc2ccc(C)cc2)c2ccccc2S(=O)(=O)N1C(C)C	-1.1	0.68
CCOc1ccccc1-c1nnc2n1N=C(c1ccc(F)cc1)CS2	-0.18	0.58
COc1ccc(Cn2c(=O)oc3ccccc32)cc1OC	-1.55	-1.62
Cc1sc2nc3sc(CC(=O)NCCO)cn3c(=O)c2c1C	-0.67	0.13
Brc1cc2c(cc1Cn1c(-c3cncs3)nc3ccccc31)OCO2	-1.71	1.43

Filtered by structure, the compounds so far with an NH in an aromatic ring
SMILES	CDC25B CDK2 inh	HIV TAR-Tat
O=C(CSc1ccccc1)Nc1ncn[nH]1	-0.81	-1.68
COc1cccc(-c2cc3nc(-c4ccccc4)cc(=O)n3[nH]2)c1	-1.26	.
Nc1nc(NCc2ccco2)n[nH]1	-0.49	.

Next section.
SMILES	CDC25B CDK2 inh	HIV TAR-Tat
CCOC(=O)c1c(NC(=O)Nc2ccc(F)cc2)c2cc([N+](=O)[O-])ccc2n1C	-0.13	.
Cc1nnsc1C(=O)NCCNC(=O)c1snnc1C	-1.71	.
O=C(COc1ccc(Br)cc1Cl)Nc1ncn[nH]1	-0.72	1.44
Cc1cc(C)cc(OCCSc2nnc(-c3cccs3)o2)c1	-2.63	1.56
COc1ccc(NS(=O)(=O)c2ccc3c(c2)CCCC(=O)N3)cc1Cl	.	0.73
COc1cc(-c2nc(C(N)=O)c3[nH]c(=O)n(-c4ccccc4)c3n2)cc(OC)c1OC	-2.14	.
CCCCNC(=O)CCCn1c(=O)[nH]c2ccsc2c1=O	-1.32	1.33
O=C(C1CCC1)N1CCCc2cc(S(=O)(=O)N3CCN(c4ccccc4)CC3)ccc21	.	0.37
Cc1nn(-c2nncc(-c3ccc(Cl)cc3)n2)c2c1C(c1cccs1)CC(=O)N2 (stereo not drawn)	-2.46	0.65
Cc1ccc2oc(SCC(=O)Nc3nccs3)nc2n1	.	4.32
CC(C)NC(=O)CCc1nnc2c(=O)[nH]c3ccccc3n12	-0.84	2.29
CCOC(=O)c1nnn(-c2nonc2N)c1CSc1nc2ccc(OCC)cc2[nH]1	1.48	.
COc1cccc(OC(=O)c2sc3ccccc3c2Cl)c1	.	1.87
Cc1cc(NS(=O)(=O)c2cc(-c3nc(-c4ccc(Cl)cc4)cs3)n(C)c2C)no1	.	1.42
O=C(CCc1ccccc1)NNc1c(Cl)cncc1Cl	-1.95	.
Cc1ccc2nc(SCc3nc4ncccn4c3Br)[nH]c2c1	.	1.03
O=C(NCC1COc2ccccc2O1)C1C2C=CC3(CN(Cc4cccs4)C(=O)C13)O2 (stereo not drawn)	-0.99	.
CN1CCN(c2nc3c(c(=O)n(C)c(=O)n3C)n2Cc2ccc(F)cc2)CC1	0.06	0.36
Cc1csc(NC(=O)CCc2c(C)nc3c4cccnc4nn3c2C)n1	0.32	1.39
COc1ccc(-c2coc3cc(O)ccc3c2=O)c(OC)c1O	.	0.53
NC(=O)c1ccc([N+](=O)[O-])cc1C(N)=O	-2.94	.
O=C(NCc1ccncc1)C(=O)Nc1ccc(Cl)cc1Cl	-0.29	.
FC(F)(F)c1cnc(N2CCC(n3cccc3)CC2)c(Cl)c1	-2.97	.
O=C(O)c1cnc(N2CCCCC2)c2ccccc12	1.82	-0.73

In a second layout: entries from further up
Each structure is followed by: CDC25B CDK2 inh | HIV TAR-Tat
- COc1ccc(-c2coc3cc(O)ccc3c2=O)c(OC)c1O
→ . | 0.53
- NC(=O)c1ccc([N+](=O)[O-])cc1C(N)=O
→ -2.94 | .

The list goes on:
SMILES	CDC25B CDK2 inh	HIV TAR-Tat
COc1cccc(-c2cc(C(F)(F)F)n3ncc(C(=O)O)c3n2)c1	-2.84	0.98
CCN1CCN(C(=O)c2cc3c(=O)n(Cc4cccs4)ccc3nc2C)CC1	.	-0.54
Cc1ccc(C)c(S(=O)(=O)n2nc(C)c(S(=O)(=O)N(C)c3ccccc3)c2C)c1	.	1.12
COc1cccc(C(=O)Cn2nnc3sc4c(c3c2=O)CCCC4)c1	-0.21	-0.12
Fc1ccc(NC(c2ccccc2)c2nnc(-c3ccccc3)o2)cc1 (stereo not drawn)	-0.7	-0.2
Cc1nc2sc(C)c(C)n2c(=O)c1S(=O)(=O)NCCc1ccc(Cl)cc1	.	0.32
Cc1cc(N/N=C/c2cccs2)c([N+](=O)[O-])cc1[N+](=O)[O-]	-1.93	.
CCc1ccc(C2C(C#N)=C(C)NC3=C2C(=O)CCC3)cc1 (stereo not drawn)	0.3	-0.19
CCN1CCN(C(c2ccc(SC)cc2)c2c(O)cc(C)n(Cc3ccco3)c2=O)CC1 (stereo not drawn)	.	1.01
O=C(CSCc1c(F)cccc1Cl)NCCSCc1ccco1	-1.16	.
Cc1ccc2oc(SCC(=O)NCc3ccco3)nc2n1	.	1.07
Cc1cc(-c2ccc(S(=O)(=O)NCc3ccc(Cl)cc3)cc2)on1	.	0.24
Nc1cc(-c2ccc(Cl)cc2)nn1S(=O)(=O)c1ccc(F)cc1	-0.33	0.58
O=C(CCS(=O)(=O)c1cc2c(cc1Cl)NC(=O)CO2)NCc1cccs1	.	2.6
CC1(C(=O)NC2CCCCC2)Cn2c(cc3sccc32)C(=O)N1CCCN1CCOCC1 (stereo not drawn)	-2.41	0.2
O=C(c1[nH]nc2c1COc1ccccc1-2)N1CCN(c2ccccc2)CC1	.	4.41
COc1ccc(-c2nc(C#N)c(NCc3ccc(C)cc3)o2)cc1	0.19	0.95
C/C(=N\O)c1ccc(OC(=O)c2ccc(Br)o2)cc1	-1.33	.
COC(=O)C1C(=O)C2=C(CC1C)NC(C)=C(C(=O)OC1CCCCC1)C2c1cccc(OC)c1OC (stereo not drawn)	-0.19	-0.44
COC(=O)CSc1nc2sc3c(c2c(=O)n1CCc1ccccc1)CCC3	-6.7	.
CN(CC(=O)N1CCc2ccccc21)S(=O)(=O)c1ccc2c(c1)n(C)c(=O)c(=O)n2C	-0.48	2.74
CC(NC(=O)Cn1ncn2nc(-c3cccs3)cc2c1=O)C12CC3CC(CC(C3)C1)C2 (stereo not drawn)	-0.33	.
Cc1ccc(N2CCn3c2nc2c3c(=O)n(C)c(=O)n2C)cc1	.	2.55
O=C1COc2cc(-c3c(N4CC=C(c5ccccc5)CC4)c(=O)c3=O)ccc2N1	.	1.2
COc1cc(NC(=O)COc2cc(Cl)c(Cl)cc2Cl)cc(OC)c1OC	0.56	.
CCCN1CNC(=S)N(c2ccccc2CC)C1	1.15	.
Cc1cc(C(=O)NCCN2CCOCC2)nn1-c1c(Cl)cc(Cl)cc1Cl	-1.73	.
CCC1c2ccc(C)n2CCN1C(=O)Nc1cccc(Cl)c1 (stereo not drawn)	-1.86	-9.25
COc1ccc(NC(=O)C2CC3CCCN3C23C(=O)Nc2ccccc23)cc1OC (stereo not drawn)	.	-0.85
CN1CCN(CCNC(=O)c2cc3n(n2)CC(C)(C(=O)NC2CCCCC2)N(C)C3=O)CC1 (stereo not drawn)	.	-6.92
Cc1oc(C(C)(C)C)cc1C(=O)Nc1ccc(N(C)C)cc1	-2.48	1.05
CC1(C)CC(=O)C2=C(C1)OC(N)=C(C#N)C2c1cccc(O)c1 (stereo not drawn)	0.41	.
CCCCN1C(=O)C2(/C(=C(/O)c3ccc(C)cc3)C(=O)C(=O)N2CCCOC)c2ccccc21 (stereo not drawn)	-0.62	1.29
CCC(C)N1C(=O)C2C(C(=O)Nc3ccc(C)cc3)C3C=CC2(O3)C1C(=O)NC1CCCCC1 (stereo not drawn)	-1.66	.
C[C@](N)(Cc1ccc(O)cc1)C(=O)O	0.99	.
CCC[B-]1(CCC)OC(Nc2ccc3ccccc3c2)=Nc2scc[n+]21	4.23*	.

The closing 6 records of the section above open the next one.
SMILES	CDC25B CDK2 inh	HIV TAR-Tat
Cc1oc(C(C)(C)C)cc1C(=O)Nc1ccc(N(C)C)cc1	-2.48	1.05
CC1(C)CC(=O)C2=C(C1)OC(N)=C(C#N)C2c1cccc(O)c1 (stereo not drawn)	0.41	.
CCCCN1C(=O)C2(/C(=C(/O)c3ccc(C)cc3)C(=O)C(=O)N2CCCOC)c2ccccc21 (stereo not drawn)	-0.62	1.29
CCC(C)N1C(=O)C2C(C(=O)Nc3ccc(C)cc3)C3C=CC2(O3)C1C(=O)NC1CCCCC1 (stereo not drawn)	-1.66	.
C[C@](N)(Cc1ccc(O)cc1)C(=O)O	0.99	.
CCC[B-]1(CCC)OC(Nc2ccc3ccccc3c2)=Nc2scc[n+]21	4.23*	.
Cc1ccc(S(=O)(=O)N(C)CCc2noc(-c3ccccc3)n2)c2nsnc12	.	0.87
O=C(c1ccccc1)n1cc2c(n1)-c1ccccc1CS2	-0.6	.
Fc1ccc(N2CCN(c3c4c(nc5nncn35)CCC4)CC2)cc1	-2.29	0.64
C=CCN1C(=O)C(C(=O)N2CCOCC2)C2CC1(C)Oc1ccccc12 (stereo not drawn)	-0.76	.
O=C(NC(=O)c1ccc(C(F)(F)F)cc1)NN1CCCCCC1	-0.6	.
CSc1cccc(NC2=NS(=O)(=O)C(c3ccc(C(C)C)cc3)=C2C)c1	0.95	-0.88
O=S(=O)(CCc1ccccc1)NCCc1csc2nc(-c3cccc(F)c3)nn12	.	-0.16
O=C(NNc1ccc(-c2csnn2)cc1)c1ccc(Cl)cc1	1.3	.
O=C(NCc1c(-n2cccc2)sc2c1CCCC2)Nc1ccc(Cl)cc1	-2.09	0.97
Cn1cnc(S(=O)(=O)N2CCN(C(c3ccc(F)cc3)c3ccc(F)cc3)CC2)c1	.	1.4
Cc1ccc(Cl)cc1-n1ncc2c(NC(C)c3ccccc3)ncnc21 (stereo not drawn)	.	1.4
Cn1c(=O)c2c(nc(CN3CCCCC3)n2Cc2ccc(Cl)cc2)n(C)c1=O	-0.65	0.54
COC(=O)c1sc2ccccc2c1S(=O)(=O)Nc1ccc(OC)cc1	.	-0.18
COC(=O)Cn1c(=O)[nH]c2sc3c(c2c1=O)CC(C)(C)OC3	-1.52	0.8
Cc1ccc(C(=O)COC(=O)CNC(=O)Cc2ccccc2)cc1[N+](=O)[O-]	-1.87	.
Cc1nc2scc(C)n2c(=O)c1S(=O)(=O)NCc1ccc2c(c1)OCO2	0.06	0.98
CCCCCN1C(C(=O)c2ccccc2)=C(OC(=O)c2ccccn2)c2ccccc2S1(=O)=O	1.19	3.5
Clc1cccc(CN2CCc3nc(N4CCN(c5ccccn5)CC4)ncc3C2)c1	.	1.46
